Compound activity (PubChem BioAssay)
TRPML1 inh: inhibitors of human TRPML1 channel; Q9GZU1; activity change, negative = inhibition, % (test concentration not listed); TRPML1-inducible cells, Ca2+ dye fluorescence, FDSS; active compounds read low; inhibition of EC80 agonist-evoked calcium signal; 390,000 tested, 0.02% active; in the data active means activity change below about -50%; inconclusive means about -30% to -50%; inactive means above about -30%;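 further: stimulus is agonist 54-4 at its EC80 concentration; on the % scale 0 is the no-effect control and ±100 the full control effect; compound concentration not given in the record; the text of the record puts the active cut at -80%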
Target sequence (Q9GZU1 whole entry, looked up): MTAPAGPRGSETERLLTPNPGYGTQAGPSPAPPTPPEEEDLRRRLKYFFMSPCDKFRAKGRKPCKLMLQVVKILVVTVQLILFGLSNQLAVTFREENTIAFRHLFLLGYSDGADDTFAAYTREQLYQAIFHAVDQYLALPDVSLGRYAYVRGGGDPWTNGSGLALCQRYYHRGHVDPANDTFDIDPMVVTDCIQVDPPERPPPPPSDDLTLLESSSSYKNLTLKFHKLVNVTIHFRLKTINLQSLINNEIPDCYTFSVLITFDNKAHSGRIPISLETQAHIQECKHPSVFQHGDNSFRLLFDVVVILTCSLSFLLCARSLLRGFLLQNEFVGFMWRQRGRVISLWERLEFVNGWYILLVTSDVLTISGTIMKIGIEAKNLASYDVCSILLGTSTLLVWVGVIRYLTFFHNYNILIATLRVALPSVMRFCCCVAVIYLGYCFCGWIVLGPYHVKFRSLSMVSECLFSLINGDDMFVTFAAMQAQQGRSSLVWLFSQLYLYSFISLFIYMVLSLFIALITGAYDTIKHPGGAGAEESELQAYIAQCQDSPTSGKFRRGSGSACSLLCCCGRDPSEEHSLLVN
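TRPML1-DL cells, Tet-induced overnight (~16 h, 37 °C) at 1,500 cells/well, were loaded with Ca8 no-wash dye plus quencher for 45-90 min at room temperature. Compounds were pinned during FDSS kinetic reading; agonist 54-4 at EC80 (4 uM final) then added.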
gsp ag: agonists of gsp mutant (McCune-Albright syndrome) | gsp mutant cells, cAMP HTRF, 30 min; control for the full effect not named in the record | Potency, µM (titrated, usually from 76.9 µM), for the others: at the highest dose activation (cAMP increase), actives largely listed as activators | 340,000 tested, 0.13% active; active = well fitted activation curve with a large enough effect; inconclusive = small, poorly fitted or top-dose-only effect, or another doubt; inactive = no such curve, though single readings can be large or run the other way; cell line not stated here;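 further: phosphodiesterase inhibitor Ro 20-1724 added with compounds to block cAMP breakdown; potency means the concentration at half of the fitted maximal effect; nearly all actives have a fitted effect of over 60% in size; about a fifth of the inactives were tested at one dose only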
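Cells stably selected in G418 were plated at 2000/well, grown 16-24 hr, then given compounds in DMSO with the PDE inhibitor […] (300 uM solution added) for 30 min at 37C; cAMP was read by HTRF.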
TRPML1 agonist: agonists of human TRPML1 channel; Q9GZU1; 410,000 tested, 0.12% active; activation, % (no concentration beside the values); AID 624414; TRPML1-expressing cells, Ca2+ dye fluorescence, FDSS; host cell line not named in the record; reference of the full effect not given here; in the data active = activation above about 50%; inconclusive = about 30% to 50%; inactive = below about 30%; further: 0% is about no effect; the text of the record puts the active cut at 80%
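In this qHTS format, compounds were pin-transferred onto Ca8-dye-loaded TRPML1-DL cells induced with Tet overnight, and intracellular Ca2+ fluorescence was recorded kinetically for 110 s after a 10 s baseline. A subsequent 4uM final 54-4 (EC80) addition followed by a second 110 s read served as the antagonist phase.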
ClpP mod: qHTS Assay for Activators of ClpP; purified B. subtilis ClpP, FRET peptide cleavage, 20 min; ATP-dependent Clp protease proteolytic subunit (Bacillus subtilis (strain 168)), P80244; AID 651965, 2013; Potency, µM (top dose mostly 57.5 µM), inactives show at the highest dose activity change, negative = active; 340,000 tested, 1.9% active; active = well fitted falling curve with a large enough effect; inconclusive = small, poorly fitted or top-dose-only effect; inactive = no such curve, though single readings can be large or run the other way; further: potency means the concentration at half of the fitted maximal effect; the source files actives as falling curves though it sought activators and does not explain the sign; nearly all actives have a fitted effect of over 65% in size; many hits overshoot -100%
Target sequence (P80244 whole entry, looked up): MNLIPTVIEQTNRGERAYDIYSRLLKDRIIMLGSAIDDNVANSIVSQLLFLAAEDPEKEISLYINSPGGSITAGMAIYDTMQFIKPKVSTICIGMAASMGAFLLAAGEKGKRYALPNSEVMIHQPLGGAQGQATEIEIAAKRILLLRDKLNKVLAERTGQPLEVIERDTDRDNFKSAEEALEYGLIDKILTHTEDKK
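FRET quenching reversal measured ClpP activation: 10 microg/mL B. subtilis ClpP at pH 8 with the FRET-FV decapeptide, read at 430 nm after 320 nm excitation. The 20-min minus 0-min signal was scaled between DMSO/no-enzyme wells and ADEP (5.8 microM final).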
gsp antag: antagonists of gsp mutant (McCune-Albright syndrome); gsp-mutant cells, cAMP HTRF, 30 min; control for the full effect not named in the record; Potency, µM (top dose mostly 76.9 µM), without a hit: top-dose activity change, negative = inhibition, usual class: inhibitors; 340,000 tested, 0.4% active; AID 624288; active = falling curve of any shape with a large fitted effect; inconclusive = falling curve, mostly with a smaller effect; inactive = flat or rising curve; cell line not stated here;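 further: intracellular cAMP measured with PDE inhibitor Ro 20-1724 present during compound exposure; potency means the concentration at half of the fitted maximal effect; on the % scale 0 is the no-effect control and ±100 the full control effect; nearly all actives have a fitted effect of over 65% in size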
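HTRF cAMP measurement after 30 min RT detection following 30 min, 37C compound treatment alongside […] (added as 300 uM solution) in G418-selected cells seeded at 2000/well and grown 16–24 h.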
Menin-MLL FL inh: menin-MLL binding inhibition, fluorescein peptide. AID 1766. 290,000 tested, under 10 active. FP activity change, % at 61.4 µM. Fluorescence polarization, fluorescein-MLL peptide displacement from menin; inconclusive = falling polarisation curve, or a change in total fluorescence; inactive = total fluorescence flat and polarisation flat or rising; no compound was filed as active; the % refers to the polarisation; negative = inhibition;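 further: % of control where 0% means no effect; inhibitors lower the polarisation; unlabelled MLL peptide was the positive control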
Numbers without * were called inactive; ? = inconclusive; . = no result given; & = joins results of further samples; [ ] = remark or other dose.

SMILES	TRPML1 inh	gsp ag	TRPML1 agonist	ClpP mod	gsp antag	Menin-MLL FL inh
CC(C)(C)c1ccc(OCCC(=O)OCC(=O)NCc2ccccc2)cc1	2	25%	2.4	0.9%	12%	.
Cn1c(=O)c2c(SCC(=O)Nc3ccccc3F)nc(-c3ccccc3F)nc2n(C)c1=O	20	-2%	1.4	-3.2%	-6%	.
COC(=O)c1ccc(OC(=O)c2ccc(OC)cc2)c(OC)c1	25	3%	1.3	1.0%	-13%	-8.3
S=C(NCc1ccccc1)N1CCN(c2cccc(Cl)c2)CC1	35	18%[15.4 µM]	0.6	.	-21%	1.3
Cc1ccc2oc(-c3ccc(Cl)cc3)c(O)c(=O)c2c1	-1	.	2.5	4.4%	.	.
Cc1ccccc1N=Nc1c(C)[nH]n(C(N)=S)c1=O	17	-3%	2.9	-6.5%	-9%	8.7
C/C(N)=C(/C#N)C(=O)COC(=O)COc1ccc(Cl)cc1	37&-13	-39%&14%[inhibitor]	-1.1&1.4	-0.5%	-3%&-7%	1.2
O=C1NC2=C(C(=O)CCC2)C(c2ccccc2Cl)N1 (configuration not stated)	12	-31%[inhibitor]	0.9	.	7%	0.3
O=C(COC(=O)c1ccc(S(=O)(=O)NCc2ccco2)cc1)Nc1ncc(Cl)cc1Cl	-6	13%[15.4 µM]	-0.1	0.7%	-10%	2.9
COc1ccc(C2CC(=O)c3c([nH]c(C(=O)OC4CCCCCC4)c3C)C2)cc1OC (configuration not stated)	-10	.	2.3	-3.7%	.	.
CCOC(=O)CNC(=O)Cn1c(C)cc2ccccc2c1=O	5	20%[15.4 µM]	0.4	8.4%	12%	-2.3
Cc1cccc(NC(=O)CSc2nc(-c3ccco3)nc3cc(=O)[nH]n23)c1	-17	.	1.9	-0.9%	.	.
Cc1cc(Sc2nnc(/N=C/N(C)C)s2)c2ccccc2n1	23	-22%	0.9	-2.6%	8%	4.7
Cc1ccc(N2C(=O)C3C4C=CC(CC4)C3C2=O)cc1[N+](=O)[O-] (configuration not stated)	.	-36%[inhibitor]	.	-2.3%	4%	0.3
Cc1ccccc1CN1C(=O)c2ccccc2S(=O)c2ccc(C(=O)NC3CCC(C)CC3)cc21 (configuration not stated)	1	.	1.3	-0.5%	.	.
COC(=O)[C@@H]1C[C@@]2(O)[C@H](O)[C@H](O)[C@H](O)C[C@H]2N1Cc1ccc(C(F)(F)F)cc1	0	.	-0.5	0.4%	4%	1.1&0.6
CCN1CCN(C(=S)NCCOC)CC1	3	?	4.9	0.4%	8%	-3.5
C=CCn1c(COc2ccc(CC)cc2)nnc1SC/C(O)=C(\C#N)c1nc2ccccc2[nH]1	-2	0%	2.0	50%	-12%	12
CCn1cc(C(=O)OCC(=O)Nc2ccccc2OC(F)F)c(=O)c2ccc(C)nc21	11	-31%[inhibitor]	0.7	.	-4%	.
CCN(C(=O)Cn1c(=O)n2nc(CCn3nc(C)cc3C)nc2c2ccccc21)c1cccc(C)c1	6	-32%[inhibitor]	-0.2	-4.5%	-7%	-0.7
COc1ccc(/C=N/NC(=O)Cc2cc(OC)c(OC)cc2[N+](=O)[O-])cc1	-12	-12%	1.6	-1.2%	7%	0.3
O=C(NCc1ccc(F)cc1)c1ccc(NC(=O)C2CCCO2)cc1 (configuration not stated)	11	?	0.4	.	0%	-3.3
COc1ccc(C=NCC2COc3ccccc3O2)cc1OC (configuration not stated)	1	-18%	1.3	0.1%	5%	8.1
CCCCC(=O)Nc1cc(Cl)ccc1C(=O)O	16	-10%	1.2	-14%	-13%	-8.2
CCOC(=O)CC1(C)OCC(C[N+]2(C)CCCCC2)O1 (configuration not stated)	-11	6%[15.4 µM]	-0.2	.	17%	-4.1
C=CCNC(=S)NNC(=O)CCC(O)CCCCC (configuration not stated)	6	16%	-0.7	-0.9%	10%	3.1
O=C1CS(=O)(=O)N(Cc2cccc(F)c2)c2ccc(Br)cc21	11	4%	0.0&-0.6	1.2%&1.7%	-21%	.
CCn1cc(C(=O)N[C@@H](CCSC)C(=O)NCCCn2ccnc2)c(=O)c2cc3c(cc21)OCO3	8	2%	-0.7	3.3%	11%	.
N#C/C(=C(/O)COC(=O)c1cccnc1Cl)c1nc2ccccc2[nH]1	-12	-9%[15.4 µM]	-0.7	.	.	11
O=C(/C=C1\SC(=O)N(CC(=O)Nc2ccc(F)cc2)C1=O)Nc1ccc(Cl)cc1	9	-22%	1.4	-12%	5%	12
CNNC(=S)Nc1cccc(C(F)(F)F)c1	-4	2%	2.7	1.0%	11%	-2.7
O=C(Nc1ccc(O)cc1)C1CCCO1 (configuration not stated)	9	-4%	1.9	-0.7%	-9%	2.9
NS(=O)(=O)c1ccc(CCNC(=O)CN2C(=O)COc3ccc(S(=O)(=O)N4CCCC4)cc32)cc1	-9	-1%	0.6	0.2%	31%[activator]	-4.2
Cc1ccc(S(=O)(=O)Cn2nnnc2C(C(C)C)N2CCC(C(N)=O)CC2)cc1 (configuration not stated)	-3	15%[15.4 µM]	-0.5	-0.6%	-14%	-3.2
c1ccc(-c2csc(N3CCSCC3)n2)cc1	-19	-11%	6.9	.	1%	6.0
CCOCCCn1c(=NC(C)=O)c(C#N)cc2c(=O)n3cccc(C)c3nc21	-11	14%[15.4 µM]	-0.1	.	0%	5.5
O=C(CN(Cc1ccco1)C(=O)CNS(=O)(=O)c1ccc(Cl)cc1)NC1CCCCC1	1	-7%	0.4	1.3%	-5%	-1.8
Cc1sc2nc(CSCC(=O)Nc3ccc(Cl)cc3F)[nH]c(=O)c2c1C	17	-48%[inhibitor]	-0.9	2.7%	2%	.
O=C(NCCc1ccccc1)C(=O)NCC1OCCCN1S(=O)(=O)c1cccs1 (configuration not stated)	-7	?	-0.4	-0.2%	1%	-5.1
COc1ccc(NC(=O)CC2C(=O)N(c3ccc(F)cc3)C(=O)N2CCc2sccc2C)cc1 (configuration not stated)	-20	.	0.6	-0.7%	.	.

Record cards, from the list above:
Record of `O=C(Nc1ccc(O)cc1)C1CCCO1` (configuration not stated) → TRPML1 inh = 9; gsp ag = -4%; TRPML1 agonist = 1.9; ClpP mod = -0.7%; gsp antag = -9%; Menin-MLL FL inh = 2.9
Record of `O=C(NCCc1ccccc1)C(=O)NCC1OCCCN1S(=O)(=O)c1cccs1` (configuration not stated) → TRPML1 inh = -7; gsp ag = ?; TRPML1 agonist = -0.4; ClpP mod = -0.2%; gsp antag = 1%; Menin-MLL FL inh = -5.1

(listing goes on)
SMILES	TRPML1 inh	gsp ag	TRPML1 agonist	ClpP mod	gsp antag	Menin-MLL FL inh
Cc1cc(C)n(CCNC(=O)c2cc(COc3ccc(F)cc3Cl)on2)n1	-23	-6%[15.4 µM]	-1.0	.	-11%	-3.0
Cc1ccc(-c2nn[nH]n2)cc1	9	-8%	-0.5	-0.6%	-2%	-1.2
COc1ccc(CCNC(=O)C(=O)NCC2OCCN2S(=O)(=O)c2ccc(OC)c(OC)c2)cc1OC (configuration not stated)	6	-25%	-0.1	0.2%	9%	-3.2
Cc1ccc(F)cc1NC(=O)N1CCN(c2ccnc3cc(Cl)ccc23)CC1	-1	-1%	3.3	-3.5%	35µM*	30[activator]
CCOc1ccc(NC(=O)CN2CCN(CC(=O)Nc3ccccc3OC)CC2)cc1	4	-37%[inhibitor]	0.0	0.2%	-7%	-3.6
COc1ccc(N2C3=C(C(=O)CC(C)(C)C3)C(c3cnn(C)c3)C3=C2CC(C)(C)CC3=O)cc1	-1	-1%	1.2	.	-8%	5.2
Cc1noc(C)c1CSc1nnc2scc(-c3ccccc3)n12	-1	20%	0.2	2.4%	?	3.9
CC(C)Cn1cnc2c(SCc3ccccc3F)nc(N)nc21	0	-19%	0.9	-0.4%	-13%	.
CCCOC(=O)/C(=C\c1ccc([N+](=O)[O-])o1)NC(=O)c1ccccc1	-15	-5%[15.4 µM]	-0.4	-19%	5%	21
O=[N+]([O-])c1cccc(-c2nnc3c4ccccc4c4ccccc4n23)c1	-10	?	0.3	-0.3%	3%	3.4
CCOC(=O)c1ccc2c(c1)NC(=O)C(N1CCN(c3ccc(OC)cc3)CC1)S2 (configuration not stated)	19	-17%	0.2	-1.9%	4%	4.1
O=C(COC(=O)c1ccc2c(=O)n3c(nc2c1)CCC3)Nc1ccccc1F	3	2%	1.5	-9.3%	2%	0.0
CC12CN(C(=O)c3ccc(Cl)cc3)C3(C#N)CC1CCC23C (configuration not stated)	0	18%	0.1	-1.0%	-2%	-1.9
O=C1/C(=C/c2ccsc2)N2CCC1CC2	-9	19%	-0.2	.	2%	3.1
O=C(C1=C(O)C(=O)N(CCCN2CCOCC2)C1c1ccc(Cl)cc1)c1cc2ccccc2o1 (configuration not stated)	10	11µM*	1.0	-1.6%	20%	-0.4
CC(=O)Nc1nnc(-c2ccccn2)o1	7	-20%	-0.1	?	7%	3.6
COc1ccc(Cl)cc1NC(=O)CN(C)C(=O)Cn1cnnn1	21	-23%	-0.3	-1.5%	8%	.
COc1ccc(CC(=O)Nc2c(C(=O)Nc3ccccc3F)oc3ccccc23)cc1	-8	.	0.2	39%	.	.
CCOc1ccc(NC(=O)NNC(=O)c2cc3ccccc3cc2O)cc1	1	-20%	1.5	-3.8%	2%	4.2
Cc1nn(CC(=O)Nc2ccc3c(c2)oc2ccccc23)c(=O)c2ccccc12	2	0%[15.4 µM]	0.0	0.0%	-5%	3.0
CCOc1cccc(NC(=O)CSc2nc(C)c3c(c2C#N)CCCC3)c1	0	2%	0.9	-5.9%	39%[activator]	6.3
Cn1c(=O)[nH]c(=O)c2c1nc(N1CCN(CCO)CC1)n2CCSc1nc2ccccc2s1	-3	-28%	-0.5	-1.1%	4%	0.9
CC(C)(C)NC(=O)CSC(=Nc1ccccc1F)NC#N	1	-4%	-0.1	1.2%	-9%	?
NNC(=O)c1csc(COc2cc(Cl)cc(Cl)c2)n1	17	-2%[15.4 µM]	4.9	.	-4%	0.5
Cc1nnc(N2CCN(c3ccccc3F)CC2)c2c1nnn2Cc1ccc(F)cc1	3	.	-0.5	3.6%	.	.
N#CCN1CCN(CC(=O)Nc2cccc3ccccc23)CC1	-17	-17%	1.1	-0.2%	15%	-0.2
COc1cccc(N(CC(=O)NCCSc2ccccn2)S(=O)(=O)c2ccccc2)c1	-6	-2%	-0.6	.	-9%	-0.7
O=C(c1ccco1)N1CCC2CC1c1c(Cl)cccc12 (configuration not stated)	5	6%	-0.8	-1.4%	.	.
CCc1ccc(NC(=O)c2cc3sc(Cl)cc3n2C)cc1	-11	.	0.2	1.9%	.	.
O=S(=O)(Nc1ccc(Cl)cc1)c1cccc2nsnc12	-1	-8%	1.6	.	-1%	-6.3
